# Tgondii IFNg: blocks Toxoplasma gondii growth in the presence of IFN-gamma | Toxoplasma gondii growth in IFN-gamma-treated host cells; stronger effect = lower value; reference of the scale not given here | activity change, negative = inhibition, %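 (about 20 µM by stock and volumes)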 | 3.8% of 69,000 active | AID 1259416;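 active means below -70%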;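 further: host cells are HeLa cells infected with Toxoplasma gondii; parasite growth read as luciferase light; one replicate is shown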
# Starred values were filed as active, the others as inactive; & = joins results of further samples. An excerpt; count on the stated rates, not on these rows.
mol | Tgondii IFNg
O=C(c1cccc(F)c1)N1CC(=O)N2[C@H](CO)[C@H](c3ccc(/C=C/c4ccccc4)cc3)[C@@H]2C1 | -48
CCCc1cnc(N2CCN(C(=O)c3c(-c4ccccc4)noc3C)CC2)nc1 | -82*
Cc1ccc(Sc2cccc3nc(N)nc(N)c23)cc1 | -108*
CC(O)c1cccc(-c2cc(N)nc3[nH]ccc23)c1 (stereo not given) | -5
O=C(Nc1ccc(Cl)cc1)N1C[C@H]2[C@@H](c3ccccc31)[C@@H](CO)N2CC1CCCCC1 | -33
CCOc1ncccc1-c1cnc(-n2cnnc2)c(C)c1 | 14
C[C@H](CO)N1C[C@H](C)[C@H](CN(C)Cc2cccc3c2OCCCO3)OCc2ccccc2-c2ccccc2C1=O | 14
CS(=O)(=O)N1CCC(Cc2cccc(C(=O)O)c2)C1 (stereo not given) | 8
CC(C)C(=O)Nc1ccc2c(c1)C(=O)N(C)[C@@H]1CC[C@@H](CC(=O)NCCc3ccccc3)O[C@@H]1CO2 | 7
O=C(c1cscn1)N1CCCC2(CCCN2Cc2ccc(Cl)cc2)C1 (stereo not given) | 7
CC1CC(OC(=O)C(O)c2ccccc2)CC(C)(C)N1C (stereo not given) | 18
O=c1c2ccccc2nc2n1C1(CCCCC1)Cc1ccccc1-2 | 10
Cc1cc(C)n(-c2ccc(N=NC3=C(O)CCCC3=O)cc2)n1 | -36
C=CCNC(=O)C1(Cc2cccc(-c3cncnc3)c2)CCN(C(=O)c2cnccn2)CC1 | -93*
Cc1ccc(S(=O)(=O)Nc2ccc3c(c2)C(=O)N([C@@H](C)CO)C[C@@H](C)[C@H](CN(C)Cc2ccc(C(F)(F)F)cc2)O3)cc1 | -73*
COCCN1Cc2c(C(=O)NC3CCCCC3)ncn2-c2ccccc2S1(=O)=O | -7
COc1ccc(CCC(=O)NCCc2sc(-c3ccc(Cl)cc3)nc2C)cc1 | 24
CC(C)Cc1cn(C2CCN(C3Cc4ccccc4C3)CC2)nn1 | -8
CC(C)NC(=O)N(C)C[C@@H]1Oc2c(NS(=O)(=O)c3cccs3)cccc2C(=O)N([C@@H](C)CO)C[C@@H]1C | -48
Cc1ccc(CN(C)C(=O)c2ccc(OC3CCN(S(C)(=O)=O)CC3)c(Cl)c2)o1 | 227

# Exported as labelled records: 4 of the compounds above.
> O=C(c1cccc(F)c1)N1CC(=O)N2[C@H](CO)[C@H](c3ccc(/C=C/c4ccccc4)cc3)[C@@H]2C1
- Tgondii IFNg: -48
> Cc1ccc(S(=O)(=O)Nc2ccc3c(c2)C(=O)N([C@@H](C)CO)C[C@@H](C)[C@H](CN(C)Cc2ccc(C(F)(F)F)cc2)O3)cc1
- Tgondii IFNg: -73*
> C=CCNC(=O)C1(Cc2cccc(-c3cncnc3)c2)CCN(C(=O)c2cnccn2)CC1
- Tgondii IFNg: -93*
> O=c1c2ccccc2nc2n1C1(CCCCC1)Cc1ccccc1-2
- Tgondii IFNg: 10

# Carrying on:
mol | Tgondii IFNg
CN1C(=O)c2cc(NC(=O)c3cnccn3)ccc2OC[C@@H]2O[C@H](CC(=O)N[C@@H]3CCN(Cc4ccccc4)C3)CC[C@H]21 | 20
CC(C)C[C@H](NC(=O)[C@H](CC(N)=O)NC(=O)[C@@H](NC(=O)[C@@H](N)CCC(=O)O)C(C)C)[C@@H](O)C[C@@H](C)C(=O)N[C@@H](C)C(=O)N[C@@H](CCC(=O)O)C(=O)N[C@@H](Cc1ccccc1)C(=O)O | 11
COc1ccc(NC(=O)N2CCC3(CC2)NC(=O)c2cc(Cl)ccc2N3C)cc1OC | 131
Cc1cc(C)c(S(=O)(=O)Nc2ccc(S(=O)(=O)Nc3nccs3)cc2)c(C)c1 | 3
O=c1[nH]c2cc([N+](=O)[O-])c([N+](=O)[O-])cc2[nH]c1=O | 19&-26&19
CCCCCCCCNC(=O)C(Cc1ccc(OCc2ccncc2)cc1)NC(=O)C1CCC(CN)CC1 (stereo not given) | -69
Cc1nc(-c2ccc(Cl)cc2)sc1CCNC(=O)Cc1ccc(F)cc1 | -36
COC(=O)c1ccc(-c2noc(CN3CCN(C(=O)C4CCCO4)CC3)n2)cc1 (stereo not given) | -1
COc1cccc(C#Cc2ccc3c(c2)O[C@@H](CN(C)C(=O)CN2CCOCC2)[C@@H](C)CN([C@H](C)CO)S3(=O)=O)c1 | -42
O=C(NCC1CCCO1)c1csc(-c2ccc(N3CCCC3)nc2)n1 (stereo not given) | -113*
COC(=O)c1sccc1NC(=O)Cn1nnc(-c2cccc(C(F)(F)F)c2)n1 | 36
O=C(NC(Cn1cccn1)c1ccccc1)c1ccc2nccnc2c1 (stereo not given) | -12
Cc1cc(C(=O)N2CCn3c(Cn4cncn4)cnc3C2)c(C)o1 | 36
O=C(NCc1cccnc1-n1ccnc1)C(=O)NC1CCCC1 | -4
CS(=O)(=O)c1ccc(-c2cccc3[nH]ccc23)cc1 | 62
COc1c2c(cc3occ(-c4ccc5c(c4)OCO5)c(=O)c13)OC(C)(C)C=C2 | -68
COc1ccccc1-c1ccc([C@@H]2[C@@H](CO)N(CC3CC3)C23CN(S(C)(=O)=O)C3)cc1 | 47
O=C(OCc1ccc(Br)cc1)c1cccnc1 | -11
Cc1ccc(S(=O)(=O)N2CCC3(CC3C(=O)Nc3cccc(F)c3)C2)cc1 (stereo not given) | -25
c1cnc(NCc2cncc3c2CCN(Cc2ccco2)C3)nc1 | -62

# Next section:
mol | Tgondii IFNg
Cc1noc(C)c1NC(=O)N[C@H]1C=C[C@H](CC(=O)Nc2ccc(-c3ccccc3)cc2)O[C@H]1CO | -37
Cc1c(S(=O)(=O)N2CCCN(C(=O)OC(C)(C)C)CC2)cnn1-c1ccccc1 | -12
C[C@@H](NC(=O)C[C@H]1C=C[C@@H](NS(=O)(=O)c2cccc(F)c2)[C@@H](CO)O1)c1ccccc1 | 17
O=C1NN(C(=O)Nc2ccc(Br)cc2)[C@@H](c2ccccc2)[C@@H]1c1ccccc1 | -3&41
Cc1c(-n2cnnn2)c(=O)n(-c2ccccc2)n1C | -7
Cc1ccc(C)c(S(=O)(=O)N2CCC3(CC2)NCCN=C3NCc2ccccc2F)c1 | -10
CC1(C)CC(NC(=O)c2cc(=O)[nH]c(-c3ccccc3)n2)c2ccccc2O1 (stereo not given) | -22
Cc1noc(C)c1S(=O)(=O)Nc1ccc2c(c1)C(=O)N([C@H](C)CO)C[C@@H](C)[C@@H](CN(C)C(=O)Nc1cccc3ccccc13)OCCCC[C@@H](C)O2 | -9
O=S(=O)(CCSc1nccc(-c2cccs2)n1)c1ccc(Cl)cc1Cl | -39
O=C(c1nc2sccn2c1CN1CCCC(c2ccccc2)C1)N1CCCCCCC1 (stereo not given) | -21
Cc1nc2ccccc2n1CC(=O)NC1CCCC1 | 6
Cc1nc(C(F)(F)F)ccc1C(=O)Nc1oc(-c2ccccc2)cc1C#N | -51
O=C(c1cnccn1)N1CCC2(CC1)CN(c1ncccn1)CCO2 | 4
O=C(NCCc1csc(-c2ccc(Cl)cc2)n1)c1ccc(C(F)(F)F)cc1 | -44
CN(C)C(=O)N1CCn2cc(CNC(=O)c3cccn3C)nc2C1 | -1
O=C(CCn1ncc2c1CCCC2)N1CCCC1c1ccc(Nc2ccc(F)cn2)cn1 (stereo not given) | -3
CCOc1ccc(-c2nc(Cn3ccn4nc(-c5ccc(OC)cc5)cc4c3=O)c(C)o2)cc1 | 10
O=C(C[C@H]1CC[C@H]2[C@@H](COC[C@H](O)CN2Cc2cc(F)ccc2F)O1)NCc1ccc(Oc2ccccc2)cc1 | -60
O=C(Nc1ccc(Cl)cc1)c1c[nH]n2c(=O)cc(CSc3ccccn3)nc12 | -5
Cc1sc(NC(=O)CSc2nc3cc4c(cc3cc2C#N)OCCO4)c(C#N)c1C | 198

# New compounds follow
mol | Tgondii IFNg
Cc1noc(C)c1NC(=O)Nc1ccc2c(c1)C(=O)N([C@H](C)CO)C[C@@H](C)[C@H](CN(C)Cc1ccc3c(c1)OCO3)OCCCC[C@@H](C)O2 | 145
CC(C)(C)c1cc(C(C)(C)C)n(-c2ncc(C(F)(F)F)cc2Cl)n1 | -24
Cc1nc(-c2cccc(F)c2)sc1CCNC(=O)C(C)C | 260
COc1ccc(-c2cccc(-n3cccn3)c2)cc1C(N)=O | -7
COCC1(NC(=O)CCc2ccccc2C)CCCC1 | -4
O=c1c2ccccc2nc2n1CCS2 | -21
CN1CC2(CCCN(C(=O)Cc3ccc4c(c3)NC(=O)CO4)CC2)OC1=O (stereo not given) | 7
COC(=O)c1c(NCc2cccc(OC)c2)c2cc(Cl)ccc2[nH]c1=O | -114*
COc1ccc(-c2nc(C3CCN(S(=O)(=O)C4CC4)CC3)cc3c2ncn3C)cc1 | -22
COC(=O)c1sccc1NC(=O)Nc1ccccc1F | -17
CS(=O)(=O)N(CCc1ccccc1)CC(=O)NCc1ccccn1 | 18
CC(NC(=O)CSCc1ccccc1Cl)c1nn[nH]n1 (stereo not given) | 11
CCN1C[C@H]2[C@@H](OC)CCN(S(=O)(=O)c3cn(C)cn3)[C@H]2C1 | 2
CN1C(=O)c2cc(NS(=O)(=O)c3ccccc3F)ccc2OC[C@H]2O[C@H](CC(=O)NC3Cc4ccccc4C3)CC[C@H]21 | -42
CN(CCNC(=O)CCN1CCCCCCC1)S(C)(=O)=O | -7
CCC(=O)N1CC[C@@H]2[C@H](CO)Nc3ccc(C#Cc4ccccc4F)cc3[C@@H]21 | 4
O=c1ccc(-c2nc3ccccc3[nH]2)c[nH]1 | -51
Cc1nc2c(c(=O)[nH]1)CCN(C(=O)C(C)n1ncc3ccccc3c1=O)CC2 (stereo not given) | -37
CCCCCCCCCc1nc2c(=O)[nH]c3ccccc3c2o1 | 4
CSc1cc(-c2ccc(Cl)cc2)nc(C(C)(C)C)c1 | 32

# Remaining list, next part
mol | Tgondii IFNg
O=C(O)c1cnn2c(-c3ccccc3)ccnc12 | -25
Cc1noc(C)c1S(=O)(=O)Nc1ccc2c(c1)C(=O)N([C@@H](C)CO)C[C@H](C)[C@H](CN(C)Cc1ccc(C(=O)O)cc1)OCCCC[C@@H](C)O2 | -9
COc1ccc(NC2COC3(CCN(Cc4ccsc4)C3)C2)cc1 (stereo not given) | -10
O=C(NCc1ccc2[nH]c(=O)[nH]c2c1)C1CN(c2ncccn2)CCO1 (stereo not given) | 5
COc1ccc(S(=O)(=O)N(C)C[C@H]2Oc3ccc(NC(=O)Nc4ccc(C(F)(F)F)cc4)cc3C(=O)N([C@H](C)CO)C[C@H]2C)cc1 | -52
CCN(CC)Cc1cc(=O)n2c(n1)CN(S(=O)(=O)C1CC1)CCC2 | 44
C=C(C)CSCc1nc2ccccc2[nH]1 | 11
COCCn1cc2c(n1)C(CNC(=O)c1ccc(C)o1)OCC2 (stereo not given) | 98
Cc1ccc(NC(=O)Cn2ncc3c(N4CCN(c5ccccc5)CC4)ncnc32)c(Cl)c1 | 197
COc1ccc(-c2nc(Cn3nnc(-c4nc(-c5ccc(C)c(C)c5)no4)c3C)c(C)o2)cc1 | -35
COc1cc2c(cc1-c1nccn1-c1ccccc1CCO)OCCCO2 | 55
COc1cccc(C(=O)Nc2ccc(-c3nc(Cn4cccn4)c(C)o3)cc2)c1 | -99*
O=C(c1ccccc1C(F)(F)F)N1CCC2(CC1)Nc1ccc(Cl)cc1-n1cccc12 | 16
CN1Cc2ccccc2CC2(CCN(Cc3ccsc3)CC2)C1=O | 0
COc1ccc(Br)cc1CNC12CC3CC(CC(C3)C1)C2 | -12
CO[C@H]1CN(C)C(=O)c2ccc(NC(C)=O)cc2OC[C@@H](C)N(C(=O)c2cnccn2)C[C@@H]1C | -15
COC(=O)[C@@H](c1ccc(O)cc1)N1Cc2ncccc2C1=O | -3
COc1cccc(-c2ccn(CC(=O)O)n2)c1 | -12
OCC1(Cc2ccc(F)cc2)CCCN(c2ncnc3nc[nH]c23)C1 (stereo not given) | -24
Cc1cc(C)n2nc(C(=O)N3CCCC(O)(CO)C3)cc2n1 (stereo not given) | -3

# By substructure, the compounds so far containing two or more sulfur atoms (4)
mol | Tgondii IFNg
CC(C)NC(=O)N(C)C[C@@H]1Oc2c(NS(=O)(=O)c3cccs3)cccc2C(=O)N([C@@H](C)CO)C[C@@H]1C | -48
Cc1cc(C)c(S(=O)(=O)Nc2ccc(S(=O)(=O)Nc3nccs3)cc2)c(C)c1 | 3
O=S(=O)(CCSc1nccc(-c2cccs2)n1)c1ccc(Cl)cc1Cl | -39
Cc1sc(NC(=O)CSc2nc3cc4c(cc3cc2C#N)OCCO4)c(C#N)c1C | 198

# Additional entries:
mol | Tgondii IFNg
CC(C)S(=O)(=O)NC[C@H](C)c1ccc(-c2ccc(CCNS(C)(=O)=O)cc2)cc1 | -29
Oc1ccccc1-c1nc(/C=C/c2ccc(Br)cc2)nn1-c1ccccc1 | -40
COc1ccccc1-c1cnc2c(c1)C(=O)N([C@H](C)CO)C[C@@H](C)[C@@H](CN(C)C(=O)CC1CC1)O2 | -35
CCn1c(C2CCN(Cc3cc(-c4ccccc4)no3)CC2)nn(C)c1=O | -2
CO[C@@H]1CN(C)C(=O)c2ccc(NS(=O)(=O)CC(F)(F)F)cc2OC[C@@H](C)N(C(=O)NC(C)C)C[C@H]1C | 302
COc1ccc2c3c(n(C)c2c1)[C@@H](CO)NCC31CN(C(=O)CC2CC2)C1 | 29
Cc1cnc(N2CCn3cc(CNc4ccccn4)nc3C2)nc1 | -2
COc1ccc(O)c(-c2nc3c(C(C)(C)C)cc(C(C)(C)C)c(O)c3o2)c1 | -119*
Cc1ccc(C)c(OC(C)C(=O)NCCc2n[nH]c3c2CCCC3)c1 (stereo not given) | 9
CC(C)CN1CCS(=O)(=O)[C@H]2CCN(C(=O)NC(C)C)CC[C@@H]21 | -7
CCNc1ccc(C)cc1C(=O)N1CCCC(c2n[nH]c(=O)n2CC)C1 (stereo not given) | -3
CC1CCN(S(=O)(=O)c2ccc3c(c2)CCC(=O)N3CC(=O)Nc2cccc3c2CCCC3)CC1 | -26
N#C[C@@H]1[C@@H](c2ccc(C3=CCCCC3)cc2)[C@@H](CO)N1S(=O)(=O)c1ccccc1 | -50
CCOC(=O)c1cc(C)nc2c1c(=O)n(Cc1nc(-c3cccc(OC)c3OC)oc1C)c(=O)n2C | 10
Cc1ccc(-c2csnn2)cc1NC(=O)CCn1c(=O)oc2cc(Cl)ccc21 | 10

# Screening results deposited in PubChem by Broad Institute.
